# VDR inh = vitamin D3 receptor (human) inhibition | P11473 | VDR-SRC2-3 peptide fluorescence polarization, 2 h | Potency, µM, without a hit: max response, negative = inhibition, actives largely listed as inhibitors | 400,000 tested, 0.93% active | AID 504847; active = well fitted inhibition curve with a large enough effect; inconclusive = small, poorly fitted or top-dose-only effect, or another doubt; inactive = no such curve, though single readings can be large or run the other way; note: series mostly up to about 120 µM
# Target sequence (P11473 whole entry, looked up): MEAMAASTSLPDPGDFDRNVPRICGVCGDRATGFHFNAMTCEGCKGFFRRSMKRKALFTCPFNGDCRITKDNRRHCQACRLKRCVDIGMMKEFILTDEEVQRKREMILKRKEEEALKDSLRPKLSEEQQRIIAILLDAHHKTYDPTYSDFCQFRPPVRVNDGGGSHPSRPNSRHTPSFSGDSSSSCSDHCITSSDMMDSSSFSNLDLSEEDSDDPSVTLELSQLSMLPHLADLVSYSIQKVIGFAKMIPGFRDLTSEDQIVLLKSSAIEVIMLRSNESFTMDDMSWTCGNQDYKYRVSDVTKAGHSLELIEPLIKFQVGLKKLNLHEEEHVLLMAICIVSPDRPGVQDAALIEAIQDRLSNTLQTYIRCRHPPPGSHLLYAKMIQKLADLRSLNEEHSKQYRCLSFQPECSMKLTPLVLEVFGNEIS
#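 Compounds are added to VDR with labelled SRC2-3 coactivator peptide and held 2 h at room temperature. Inhibition of the VDR–peptide interaction is then read as a change in fluorescence polarization.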
# Starred values were filed as active, the others as inactive; ? = inconclusive; & = joins results of further samples. % is set by controls: 0 for no effect and ±100 for the full control effect; potency is the fitted concentration of half-maximal effect. Only part of the results is shown. The share of hits here may be higher or lower than overall.
SMILES,VDR inh
CC(Oc1ccccc1F)c1ccnc2nc(/N=C/N(C)C)nn12 (configuration not stated),-2%
Cc1ccc2cc(CN(c3cccc(C)c3C)S(=O)(=O)c3ccccc3)c(=O)[nH]c2c1,-18%
O=C(C1CCCN1S(=O)(=O)c1ccc(Cl)c(Cl)c1)N1CCCCC1 (configuration not stated),5%
O=C1C2CCCCC2C(=O)N1c1cccc(OS(=O)(=O)c2ccccc2)c1 (configuration not stated),-8%
COc1ccc(C2CC(c3ccccc3Cl)=NN2c2ccc(S(N)(=O)=O)cc2)cc1 (configuration not stated),-20%
Clc1cc(Cl)cc(C2=N[C@@H](Cc3ccccc3)CO2)c1,-4%
CCNc1nc(SCC(=O)OC)nc(N2CCOCC2)n1,18%
Cc1nn(C(=O)c2cccs2)c(C)c1CN1C(=O)c2ccccc2C1=O,3%
S=C(NCc1ccccc1)NCc1ccc(CNC(=S)NCc2ccccc2)cc1,-12%
CC(C)c1onc(C(=O)N(C)Cc2ccccc2)c1[N+](=O)[O-],-17%
CCN(CC)CCOC(=O)c1ccc(Nc2c3c(nc4ccccc24)CCC3)cc1,-1%
CCCn1c(SCC(=O)Nc2nc(-c3ccc(OC)cc3)cs2)nc2c1c(=O)n(C)c(=O)n2C,0%
CCN(Cc1ccccc1)C(=O)Cn1c(=O)n(Cc2ccccc2)c(=O)c2c1c1cc(OC)ccc1n2C,2%
CCc1ccc(OCC(=O)O/N=C(\N)Cc2ccc([N+](=O)[O-])cc2)cc1,-9%
CCCCOc1ccc(-c2nnc(-c3ccncc3)o2)cc1,-14%
CCc1nnc(NS(=O)(=O)c2ccc(NC(=S)NC(=O)c3ccc(F)cc3)cc2)s1,?
CCCC(CCC)C(=O)Nc1ccc2c(c1)N(C(=O)CN1CCN(C)CC1)c1ccccc1CC2,2%
COc1cc(C(=O)COC(=O)c2ccncc2)cc(OC)c1OC,-5%
CSc1ccc(/C=C/c2nc3ccccc3n2S(=O)(=O)c2cccc(Cl)c2)cc1,?
COc1ccc(C2CC(c3cccs3)=NN2S(=O)(=O)c2ccc(C)cc2)cc1 (configuration not stated),6%

# Some of the entries so far, as labelled records:
> CCc1ccc(OCC(=O)O/N=C(\N)Cc2ccc([N+](=O)[O-])cc2)cc1
  VDR inh: -9%
> CCCCOc1ccc(-c2nnc(-c3ccncc3)o2)cc1
  VDR inh: -14%
> CCc1nnc(NS(=O)(=O)c2ccc(NC(=S)NC(=O)c3ccc(F)cc3)cc2)s1
  VDR inh: ?
> CCCC(CCC)C(=O)Nc1ccc2c(c1)N(C(=O)CN1CCN(C)CC1)c1ccccc1CC2
  VDR inh: 2%

# Given with each value named: entries from further up.
S=C(NCc1ccccc1)NCc1ccc(CNC(=S)NCc2ccccc2)cc1
  VDR inh: -12%
CC(C)c1onc(C(=O)N(C)Cc2ccccc2)c1[N+](=O)[O-]
  VDR inh: -17%

# Next section
SMILES,VDR inh
O=S(=O)(c1c(Cl)sc(Cl)c1Br)N1CCCC1,-22%
O=S(=O)(c1ccc2[nH]c3c(c2c1)CCCCC3)N1CCN(c2cccc(Cl)c2)CC1,12%
COCCNC(=O)CSc1nc2cc(OC)c(OC)cc2c(=O)n1Cc1ccco1,-5%
Cc1cc(NC(=O)C(C)N2C(=O)c3ccccc3S2(=O)=O)no1 (configuration not stated),-2%
O=C(c1ccco1)N1CCN(C(=O)c2nn3cccnc3c2Cl)CC1,8%
Cc1nc2nc(CNC(=O)OC(C)(C)C)nn2c(C)c1CCC(=O)NCc1ccccc1Cl,-4%
COc1ccccc1C(=O)Nc1sc(C(=O)N2CCCC2)c(C)c1C#N,-9%
COc1ccc(OC)c(NC(=O)C2CCN(S(=O)(=O)c3c(C)noc3C)CC2)c1,-2%
Cc1cccc(N2CCN(CC(=O)Nc3ccc(S(=O)(=O)N4CCOCC4)cc3)CC2)c1C,11%
COc1ccc(NC(=O)C(C)Sc2nnc3c4c(nc(-c5ccc(OC)cc5)n23)CC(C)(C)OC4)cc1 (configuration not stated),-10%
Cc1ccc(-c2c(NC(=O)C(C)C)n(C)c3ccccc3c2=O)cc1,-23%
NS(=O)(=O)c1ccc(NC(=O)CN2C(=O)COc3ccc(Cl)cc32)cc1,5%
CCC(=O)N1CCc2cc(Br)cc(S(=O)(=O)NCCN3CCCCC3CC)c21 (configuration not stated),3%
Cc1ccc(OCC(=O)O/N=C(\N)Cc2ccc(Cl)cc2)cc1,-22%
COc1ccc([N+](=O)[O-])cc1N(CC(=O)Nc1ccccc1C(=O)N1CCOCC1)S(C)(=O)=O,-3%
CCOC(=O)C(Cc1ccccc1)NS(=O)(=O)c1ccc(NC(C)=O)cc1 (configuration not stated),-3%
CCOc1ccc(/C(O)=C2/C(=O)C(=O)N(CC3CCCO3)C2c2ccco2)cc1 (configuration not stated),0%
O=C(Nc1nc2nccc(-c3ccccc3)n2n1)c1ccc(F)cc1,-8%
CCc1cc2c(C)ccc(C)c2nc1SCC(=O)Nc1c[nH]c(=O)[nH]c1=O,15%
Cc1cc([N+](=O)[O-])ccc1NCc1cccc2ccccc12,-9%
CCCCCCc1nc2c(=O)[nH]c3ccccc3c2o1,11%
CCOC(=O)N1CCN(C(=O)c2ccc3c(c2)NC(=O)/C(=C\c2ccc(OC)c(OC)c2)S3)CC1,?
CC1CC1C(=O)OCC(=O)Nc1cccc(S(=O)(=O)NC2=NCCCCC2)c1 (configuration not stated),-10%
COc1c[nH]n(-c2ccccc2)c(=O)c1=O,3%
CCN(CC)CCN1C(=O)C(=O)/C(=C(/O)c2ccc(S(=O)(=O)N3CCOCC3)cc2)C1c1ccc(Cl)cc1 (configuration not stated),3%
CCOc1ccccc1Oc1nc(C)nc2c1oc1ccccc12,9%
CC(=O)Nc1ccc(NC(=O)COC(=O)C2CCC(C(C)(C)C)CC2)cc1 (configuration not stated),-17%
Nc1nc2nc(-c3ccc(Cl)cc3)cc(C(F)(F)F)n2n1,19%&13%
CC(C)(C)C(=O)c1sc(Nc2ccccc2)nc1N,-5%
C[C@H](CO)N1C[C@H](C)[C@@H](CN(C)C(=O)Nc2ccc3c(c2)OCO3)Oc2ccc(NC(=O)CCC(F)(F)F)cc2C1=O,8%
O=C(Nc1ccc(C(=O)Nc2ccc(C(=O)Nc3ccc(S(=O)(=O)O)c4cc(S(=O)(=O)O)cc(S(=O)(=O)O)c34)cc2)cc1)Nc1ccc(C(=O)Nc2ccc(C(=O)Nc3ccc(S(=O)(=O)O)c4cc(S(=O)(=O)O)cc(S(=O)(=O)O)c34)cc2)cc1,5.6µM*
O=C(NC(Cc1c[nH]c2ccccc12)C(=O)O)/C(=C/c1ccco1)NC(=O)c1ccccc1 (configuration not stated),-2%
COC(=O)c1ccncc1C(=O)Nc1ccc(F)cc1,-14%
COc1ccccc1N1CCN(C(=O)c2cc(-c3ccc4c(c3)OCO4)on2)CC1,2%
COc1ccc(OC)c(NC(=O)CCc2c(C)nn(-c3ccc(N4CCCC4)nn3)c2C)c1,-6%
CCN1CCN(S(=O)(=O)c2ccc(C(=O)Nc3sc4c(c3C(N)=O)CCN(CC)C4)cc2)CC1,13%
COc1ccc(C=NNc2nc3ccccc3s2)cc1,-19%
Cn1c(CN2CCCCC2)nc2cc(NC(=O)c3ccccc3Cl)ccc21,-22%&-11%
O=C(CCCOc1ccccc1)NCc1ccco1,-17%
C=CCC[C@H](Cc1ccc(F)cc1)C(=O)O[C@H](CNC(=O)[C@@H](CC=C)CC(=O)N(CCO)Cc1ccccc1)c1ccccc1,10%
O=C(C/C=N\OCc1ccc(Cl)cc1Cl)Nc1ccccc1,17%
Cc1cccc(C)c1OCC(=O)NNC(=O)CCNC(=O)c1ccc(Br)cc1,-17%
Cc1ccc(OCC(=O)Nc2ccc(-c3nc4ccccc4o3)cc2)c(C)c1,-9%
O=C(O)C1OC(C(=O)O)C(C(=O)O)C1C(=O)O (configuration not stated),-2%
CC(C)(C)C(=O)N1NC(=Nc2ccccc2)SC1(C)C,-6%
O=C(Nc1ccc(N2CCOCC2)cc1)c1ccc(Cl)c(S(=O)(=O)N2CCCC2)c1,-25%
CCOCC(=O)Nc1ncc(S(=O)(=O)c2ccc([N+](=O)[O-])cc2)s1,-2%
Cc1ccc(-c2csc3ncnc(-n4cnc5ccccc54)c23)cc1,4%
COc1ccc(S(=O)(=O)N2CCC(C(=O)N(C)Cc3ccc(C)o3)CC2)cc1OC,-13%
Cc1cc(C)n2nc(SCC(=O)N(C)Cc3ccccc3)nc2n1,12%
CC(C)=CCn1cnc2c1c(=O)n(C)c(=O)n2C,-6%
CC(C)(C)C(=O)NC(=S)Nc1sc2c(c1C#N)CCCCC2,?
COc1ccc(S(=O)(=O)NCC(c2ccc(F)cc2)N2CCN(C)CC2)cc1 (configuration not stated),-4%
COc1cccc2c(=O)c3c(cnn3C)n(C)c12,-16%
CC(C)COc1ccc(C(=O)NNC(=O)c2ccc(=O)[nH]c2)cc1,0%
O=C(c1cc2sccc2n1Cc1ccccc1)N1CCc2ccccc21,-2%
C=CCn1c(SCc2nc3ccccc3c(=O)[nH]2)nc2scc(C3CC3)c2c1=O,3%
COCc1cc(CN2CCN(C)CC2)c(O)c2ncccc12,-9%
Cc1ccccc1-c1ncc(CN2CCC(CO)(CCCc3ccccc3)CC2)cn1,-8%
Nc1nc2ccccc2n1C(=O)c1ccccc1,-3%

# Following part:
SMILES,VDR inh
CC(=O)Nc1ccc(Nc2cc(C)nc3c(-c4ccccc4)cnn23)cc1,-11%
COC(=O)C(Cc1ccccc1)NC(=O)CNC(=O)c1ccc(Br)o1 (configuration not stated),5%
O=C(O)CCNC(=O)/C(=C\C=C\c1ccccc1)NC(=O)c1ccccc1,-17%
COCCNC(=O)Cn1nc(-c2ccccc2C)ccc1=O,-14%
COc1ccc(C(CNC(=O)C(C)(C)Oc2ccc(Cl)cc2)N2CCOCC2)cc1 (configuration not stated),-6%
Cc1cccc(-n2nc3c(c2NC(=O)C(C)C)CSC3)c1,10%
CCOC(=O)C1=C(CCc2ccccc2)NC(=O)NC1c1cccc([N+](=O)[O-])c1 (configuration not stated),-7%
COc1ccc(CNC(=O)c2ccc(CS(=O)(=O)c3ccc(OC)cc3)o2)cc1,9%
CCN1CC2=C(OC(N)=C(C#N)C2c2cccs2)/C(=C/c2cccs2)C1 (configuration not stated),0%
CCCn1c(SCC(=O)NCC2CCCO2)nc2c1c(=O)n(C)c(=O)n2C (configuration not stated),-15%
NC(=O)C1CCN(c2nc(C3CC3)nc3c2nnn3Cc2ccccc2Cl)CC1,-5%
Cc1ccccc1OCc1nnc(SCc2cc(=O)[nH]c3ccccc23)n1-c1ccccc1,-9%
CC(=O)N1c2ccc(S(=O)(=O)N3CCCC(C(=O)Nc4cc(C)cc(C)c4)C3)cc2CC1C (configuration not stated),-2%
CCCc1nc2ccccc2n2c(-c3ccc(C)cc3)c3c(=O)n(C)c(=O)n(C)c3c12,-7%
CC1CN(C(=O)c2scc3c2OCCO3)CC(C)O1 (configuration not stated),-1%
CCNC(=O)CC1C(=O)N(c2cccc(C)c2)C(=O)N1CCC(C)C (configuration not stated),-8%
Cc1ccc(/C=N/Nc2ccc3ccccc3n2)o1,-7%
O=C(Nc1nc(-c2ccccn2)cs1)c1ccc(F)c(S(=O)(=O)N2CCOCC2)c1,89µM*
Cc1ccc(-c2nc3sc(CCNC(=O)c4ccco4)c(C)n3n2)cc1,6%
COc1ccc(-c2cc3nc(N)cc(=O)n3[nH]2)cc1,2%
Cc1ccc(C)c(NC(=O)Cn2cc(C(=O)C3CCCCC3)c3ccccc32)c1,-4%
CCN(CC)c1ccc(NC(=O)c2ccco2)cc1,-6%
CCCN1CNc2c(c(=O)[nH]c(=S)n2CCc2cc(OC)ccc2OC)C1,-13%
Cc1cccc(C)c1Nc1nnc(SCC(=O)c2ccc(Br)s2)s1,?
COc1ccc(Nc2ncnc3c2cnn3-c2cccc(C)c2)cc1OC,9%
O=C(Nc1ccc(F)cc1)c1ccc(CSc2ccc(Cl)cc2)o1,?
O=C(COC(=O)c1ccc[n+]([O-])c1)Nc1ccccc1OC(F)F,-1%
CCc1cccc(C)c1NC(=O)CCCN1C(=O)NC(C)(C)C1=O,8%
N#Cc1cc2c(=O)n3ccccc3nc2n(-c2nnc(SCc3ccccc3)s2)c1=O,14%
O=C(CSc1nc(C2CC2)nc2ccccc12)Nc1ccccc1,?
COc1ccc(Cn2c(C(=O)O)c(CNCc3ccc(OC)cc3OC)c3ccc(C)cc32)cc1,11%
COCCCn1c(=O)/c(=C\c2ccccc2OC(F)F)s/c1=C(/C#N)C(=O)NC(C)C,-18%
C=CSc1sc(Cl)c(N2CCOCC2)c1[N+](=O)[O-],-1%
COc1cccc(-c2noc(CCC(=O)NCC3CCCO3)n2)c1 (configuration not stated),22%
CC(C)C(C(=O)NCC1CCCO1)N(Cc1ccccc1)C(=O)CNS(=O)(=O)c1ccccc1 (configuration not stated),-14%
Cc1ccc2cc3c(NC(=O)C4CCCO4)nn(CC(C)C)c3nc2c1 (configuration not stated),-1%
O=C(COC(=O)c1ccccc1Br)Nc1cc(S(=O)(=O)N2CCOCC2)ccc1N1CCCC1,-14%
CC(=O)Nc1cccc(NC(=O)c2cccc(S(=O)(=O)N3CCN(Cc4ccccc4)CC3)c2)c1,-8%
